# Sa RN4220 lethal = kills Staphylococcus aureus RN4220; AID 1259311; actives 0.33% (n = 330,000); inhibition, % (concentration not given with the values); S. aureus RN4220 growth, OD600, 16 h;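 active = z-score of -3 or lower and OD600 up to 0.18 on both plates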;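 note: plate controls were untreated cells for no effect and reference antibiotic for full effect; stock transfer was 100 nL into about 80 µL; one replicate is shown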
# ugtP null kill = growth inhibition of S. aureus ugtP deletion strain; AID 1259309; actives 0.54% (n = 330,000); growth inhibition, % (test concentration not listed); S. aureus RN4220 ugtP deletion, OD600 growth, 16 h; some inactives read as strong as hits;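 active = z-score under -3 and OD600 up to 0.15 on both plates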;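 note: plate controls were untreated wells for no effect and antibiotic for full effect; wells of about 80 µL received 100 nL stock; the first replicate is given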
# Mtb hypoxia rep = Mtb hypoxia fluorescent reporter inhibition; M. tuberculosis hypoxia-regulated fluorescent reporter, fluorescence; fluorescence inhibition, % (no concentration beside the values); actives 0.1% (n = 300,000);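 active = 35 to 45% if threefold the growth effect, above 45% if 1.5-fold the growth effect; inactive = the rest, general growth blockers included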;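 note: wells of about 50 µL received 100 nL stock; 0% = vehicle wells and 100% = reference inhibitor wells; whole bacteria with a GFP reporter of the hypoxia response; strong numbers were not always called active; many hits fall short of the cut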
# Bead autofluor = counter-screen for toxin protease inhibitors: compound fluorescence | fluorescence intensity (concentration not given with the values) | compound autofluorescence counterscreen, microsphere flow cytometry; stronger effect = higher value | actives 3.1% (n = 360,000) | AID 624483;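 active = at least 3 SD above the mean of all compounds, about 16000 in these data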;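 note: 100 nL of 1 mM stock went into each well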
# PrP UTR inh = suppresses PrP 5' UTR mRNA reporter expression. inhibition, % (test concentration not listed). actives 0.35% (n = 340,000). cell-based PrP 5' UTR mRNA reporter, plate reader;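 active = every replicate at 50% or more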;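 note: 0 = median of the neutral control wells; tested in H4 reporter cells; numbers are from one replicate; inactives centre near -14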
# BJeLR lethal = BJeLR cell viability loss; BJeLR (HRASV12) viability, CellTiter-Glo ATP luminescence, 48 h; reference of the scale not given here; inhibition, % (concentration not given with the values); actives 0.17% (n = 300,000); AID 1554;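 active = replicate mean above 50%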;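 note: 50 nL library stock added to about 25 µL; numbers are from one replicate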
# Mtb hypoxia rep growth = further read-out of Mtb hypoxia rep, marked with its call; growth inhibition, %; measured here: M. tuberculosis growth (absorbance);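 0% = vehicle and 100% = reference antibiotic; read after six days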
# * marks the source's active call; other numbers are inactive results; . = no result given. Outcome played no part in choosing rows. Share with any hit: about 4%.
structure	BJeLR lethal	Mtb hypoxia rep growth	Sa RN4220 lethal	Mtb hypoxia rep	Bead autofluor	PrP UTR inh	ugtP null kill
O=C(Nc1cccc(-c2ccc(N3CCOCC3)nn2)c1)c1ccc([N+](=O)[O-])cc1	0	5	5.1	3	5644	-73	-1
CC(CC(=O)O)NCC1COc2ccccc2O1 (stereo unspecified)	-1	4	3.9	9	5687	-6	11
COc1ccc(/C=C/C(=O)c2ccc(C)c([N+](=O)[O-])c2)cc1O	-18	13	5.1	21	2016	-46	-5
CCOc1ccc(OCCC(=O)OCC(=O)NC2CCCCC2)cc1	8	8	-0.5	4	5761	4	2
O=c1[nH]c(/C=C/c2ccccc2OC(F)F)nc2c1cnn2-c1ccccc1	-1	4	-9.0	11	2418	-6	-6
Cc1ccc(C(=O)CSc2nc(-c3ccccc3)ccc2C#N)cc1	9	1	-2.0	-9	2827	-13	-17
Cc1cc(C)c(Cn2ncn(-c3ccc(Br)cc3)c2=O)c(C)c1	6	14	1.3	16	4061	-24	12
CN(C)c1ccc(C(=O)OCC(=O)N2CCCCCC2)cc1	0	4	16	-2	3318	-56	7

# Molecules from the list above that have a carbonyl joined to an NH by a bond outside any ring, in the order listed:
structure	BJeLR lethal	Mtb hypoxia rep growth	Sa RN4220 lethal	Mtb hypoxia rep	Bead autofluor	PrP UTR inh	ugtP null kill
O=C(Nc1cccc(-c2ccc(N3CCOCC3)nn2)c1)c1ccc([N+](=O)[O-])cc1	0	5	5.1	3	5644	-73	-1
CCOc1ccc(OCCC(=O)OCC(=O)NC2CCCCC2)cc1	8	8	-0.5	4	5761	4	2

# The list goes on.
structure	BJeLR lethal	Mtb hypoxia rep growth	Sa RN4220 lethal	Mtb hypoxia rep	Bead autofluor	PrP UTR inh	ugtP null kill
Cc1ccc(C(=O)C(C)OC(=O)c2ccccc2[N+](=O)[O-])cc1 (stereo unspecified)	-8	6	8.5	5	2092	-119	-2
Cc1cccc(OCCOc2ccc(/C=N/NC(=O)Cc3nnc(N)s3)cc2)c1	0	.	.	.	2487	-8	.
NC(CC(=O)O)c1cccc(OCc2ccccc2)c1 (stereo unspecified)	.	.	-0.1	.	2776	-13	2
CCOC(=O)c1cnc(-c2ccccc2)nc1N(C)C	5	6	7.2	17	5932	-40	5
O=C1CCN(Cc2ccccc2)CCN1CCOc1ccccc1	-9	.	.	.	3677	-15	.
CSc1ccc(CNC(=O)C2Cc3cc(S(=O)(=O)N4CCCC4)ccc3N2C(C)=O)cc1 (stereo unspecified)	-3	3	-2.7	3	5426	-8	12
Cc1cc(NC(=O)CCC(=O)N(c2ccccc2)C(C(=O)NCC2CCCO2)c2cccnc2)no1 (stereo unspecified)	8	.	2.3	.	4360	-6	5
O=C(c1ccccc1)c1cc2ccccc2oc1=O	0	8	2.7	15	3906	-45	0
CCc1ccc2[nH]c(=O)c(CN(CCCO)C(=O)NCc3ccccc3)cc2c1	-9	6	12	6	4399	5	-13
Cc1cccc(S(=O)(=O)c2c(N)n(N=Cc3ccccc3)c3nc4ccccc4nc23)c1	.	-7	-1.2	-4	.	.	13
CC1(OC(=O)CCc2ccccc2)C(=O)C=C2C=C(c3ccc(C#N)cc3)N(C(CO)CO)C=C2C1=O (stereo unspecified)	4	15	0.3	4	3502	2	-5
CC1CCC2(CC1)NC(=O)N(CC(=O)NCCc1ccc(F)cc1)C2=O (stereo unspecified)	.	-10	0.5	-4	3955	-13	2
CCN1CCN(CC(=O)N/N=C/c2cc(Br)cs2)CC1	-3	.	.	.	3174	-34	.
COc1ccc(CCNC(=O)CSc2nc3c(c(=O)n(C)c(=O)n3C)n2C)cc1OC	3	.	0.1	.	.	-11	5
CC(NS(=O)(=O)c1ccc(OCC(=O)N2CCCC2)cc1)c1ccccc1 (stereo unspecified)	-6	-10	2.0	-1	3940	-20	2
C=CCNC(=O)N1C2=NC(C(=O)OC)=C(C(=O)OC)C3N(Cc4ccccc4)c4ccccc4[C@]23CC1C(=O)OC (stereo partly specified)	.	2	2.0	1	.	.	-8
O=C(NCC(c1cccnc1)N1CCN(c2ccc(F)cc2)CC1)c1ccco1 (stereo unspecified)	-10	3	22	0	5471	-5	22
O=S(=O)(c1ccc(NC(=S)N2CCN(c3ccc(O)cc3)CC2)cc1)N1CCOCC1	1	-8	7.3	1	4258	-12	8
Cc1occc1C(=O)N1CCCc2ccccc21	-2	-6	3.7	-5	2460	-14	3
Cc1ccc(S(=O)(=O)NC(CC(C)C)C(=O)Nc2ccncc2)cc1 (stereo unspecified)	11	5	1.0	3	4658	-17	-1
Cc1ccc(S(=O)(=O)N2CCOCC2)cc1C(=O)OCC(=O)NCCc1ccc(F)cc1	.	0	8.1	-1	3181	1	11
Nc1nc(SCCC(F)=C(F)F)n[nH]1	0	-5	1.1	-4	3265	-11	2
COc1cc(C(O)c2nc3ccccc3n2C)cc(OC)c1OC (stereo unspecified)	-4	.	1.4	.	4683	3	1
N#CC1CC(c2ccccc2)=NN1c1ccccc1[N+](=O)[O-] (stereo unspecified)	6	0	8.3	21	3468	-57	10
COC(=O)C1=C(c2c(C)noc2C)C[C@@H]2CC[C@H]1N2C(=O)N1CCc2cc(OC)c(OC)cc2C1	.	4	-12	1	3544	-6	-7
O=C(Nc1ccccc1)OCc1cncs1	4	-1	3.1	4	3991	-26	0
O=C(O)C1C(C(=O)Nc2ccc(Cl)cc2)C2C=CC1C21CC1 (stereo unspecified)	-2	3	0.4	4	9815	-25	-3
Cc1cc(C)cc(NC(=O)N2CCC(NC(=O)c3ccccc3C)CC2)c1	-15	.	1.1	.	2796	-29	8
Cc1c(C(=O)NCc2ccccc2)oc2ccc(S(=O)(=O)N3CCC4(CC3)OCCO4)cc12	-9	1	2.6	-2	9614	-2	-2
N#Cc1ccccc1Cn1c(=O)oc2ccccc21	21	5	6.6	-1	3998	-34	5
O=C(NN=Cc1ccc(O)cc1)c1cc(-c2ccccc2)nc2ccccc12	.	-8	-0.4	-4	.	.	-4
COc1cc(NS(=O)(=O)c2ccc(NC(=O)c3ccc(Cl)cc3Cl)cc2)ncn1	-1	3	0.2	9	5746	-6	0
O=C(CCSCCC(=O)NCc1ccc(F)cc1)NCc1ccc(F)cc1	-11	2	-0.7	14	2454	0	9
Cc1ccc(NC(=O)COC(=O)CN2C(=O)NC3(CCCC3)C2=O)cc1S(=O)(=O)N(C)C	2	-1	4.0	-2	4473	12	13
C=CCSC(=S)Nc1c(C)n(C)n(-c2ccccc2)c1=O	1	3	0.8	9	4007	-5	6
O=C(O)[C@@H]1CCCN1S(=O)(=O)c1cccc(S(=O)(=O)N2CCC[C@H]2C(=O)O)c1	-10	.	.	.	3502	-16	.
CCCC(NC(=O)Cc1c(C)c2cc3c(C)c(C)oc3c(C)c2oc1=O)C(=O)N[C@@H](Cc1ccccc1)C(=O)O (stereo partly specified)	12	.	8.9	.	4127	-10	-4
CCC(C)Cn1cnc2c(Sc3c([N+](=O)[O-])ncn3C)nc(N)nc21 (stereo unspecified)	.	10	3.0	9	4106	-5	5
Cc1c(Cl)cnc(NC(=O)COC(=O)CCC(=O)c2cccs2)c1Cl	-4	-15	-1.3	3	2026	-13	-1
CCOC(=O)NN=Cc1ccccc1F	.	-4	0.6	2	.	.	4
Cc1ccc(N2CCN(/N=C/C=C/c3ccccc3)CC2)cc1	20	.	.	.	7469	-8	.
COc1ccc(CN/C(C)=C(/C#N)C(N)=O)cc1OC	-2	9	4.9	7	6323	-30	0
OCC1(Cc2ccccc2)CCN(Cc2cccc(F)c2F)CC1	-4	14	3.5	6	4449	-35	4
Cc1ccc2nc(NCCC(=O)O)nc(-c3ccccc3)c2c1	1	4	3.3	10	4614	-9	2
CCOC(=O)CNC(=S)N(Cc1ccccc1)Cc1ccccc1F	-7	8	23	3	4269	-13	-70
O=C(Cc1ccsc1)OCC(=O)c1ccccc1	.	11	6.3	18	3627	-14	0
CCOc1ccccc1C1CC(=O)NC2=C1C(=O)CCC2 (stereo unspecified)	-3	.	2.5	.	2086	-29	4
COC(=O)CSc1nnc(CNC(=O)Cc2ccccc2)n1-c1ccccc1OC	.	3	-0.5	3	11532	-6	2
FC(F)(F)c1ccccc1CNCc1ccc2c(c1)OCO2	10	-2	5.2	6	3959	-13	4
CC1(C)Cc2c(c(=S)nc(-c3ccccc3)n2CCO)CO1	-6	.	-1.1	.	4824	-6	1
O=S(=O)(NCc1ccco1)c1ccc(S(=O)(=O)N2CCCC2)cc1	-3	4	3.8	3	5060	-14	-5
COc1ccc2cc(-c3ccn[nH]3)ccc2c1	-2	11	0.8	2	7870	-84	9
Cc1ccc(NC(=O)C2CCCN(S(=O)(=O)c3c(C)noc3/C=C/N(C)C)C2)c(C)c1 (stereo unspecified)	8	5	2.3	8	4763	-18	11
CC(C)[C@@H](C(=O)N1CCCC1)N1C(=O)N2CCc3c([nH]c4ccccc34)[C@@]2(C)C1=O	-4	.	-0.2	.	5065	-17	5
COc1ccccc1C(=O)NCCC(=O)NCC(c1ccccc1)N(C)C (stereo unspecified)	-1	2	1.8	-7	5442	-8	4
CCOC(=O)c1c(C)[nH]c(C=C2C(=O)CCCC2=O)c1O	4	0	6.7	6	10398	-5	4

# Additional results.
structure	BJeLR lethal	Mtb hypoxia rep growth	Sa RN4220 lethal	Mtb hypoxia rep	Bead autofluor	PrP UTR inh	ugtP null kill
CCOc1cc2[nH]c(=S)n(CCCN3CCOCC3)c(=O)c2cc1OCC	6	16	5.1	6	5687	-4	7
CN(N=Cc1ccco1)C1=NS(=O)(=O)c2ccccc21	.	0	5.6	0	.	.	0
CN1N=C(c2ccc(Cl)cc2)CC(c2ccc(Cl)cc2)C1=O (stereo unspecified)	1	-6	-1.9	3	1991	-17	-14
COc1cc(C(=O)N2C(=O)c3cccc(N)c3C2=O)cc(OC)c1OC	1	-5	0.7	-5	4570	-13	2
CC(C)=CCCC(C)CN1CCC(n2nccc2NC(=O)c2ccccc2)CC1 (stereo unspecified)	-5	8	-0.7	5	6638	-6	6
CC(C)Oc1ccc(C2CC(=O)N(c3cccc(Br)c3)C2=O)cc1 (stereo unspecified)	-1	7	-0.8	-4	6714	.	8
CC(=O)c1cccc(NC(=O)C2=CC(c3cccs3)=NS(=O)(=O)N2C)c1	-6	2	1.0	7	5375	-8	3
Cc1cccc(OCCOCCN2CCOCC2)c1C	-9	0	6.4	4	11022	-24	10
COC(=O)c1ccc(C)c(NC(=O)CCCN2C(=O)NC(C)(C)C2=O)c1	.	3	3.3	5	.	-10	6
O=C1CC(c2ccc(Cl)c(Cl)c2)CC(O)=C1C=NCCN1CCNCC1 (stereo unspecified)	-7	7	4.1	14	.	.	-7
Cc1nn(CCc2n[nH]c(=S)n2-c2ccc(F)c(Cl)c2)c(C)c1[N+](=O)[O-]	7	0	2.3	2	8346	-9	3
O=C(N/N=C\c1cccc(F)c1)c1ccc(Cn2cc(Br)c([N+](=O)[O-])n2)o1	19	.	.	.	2463	-12	.
S=c1[nH]nc(-c2cccnc2)n1/N=C/c1ccccc1	-8	.	.	.	5512	3	.
CC(Sc1ncnc2sccc12)C(=O)Nc1ccc(S(=O)(=O)N2CCOCC2)cc1 (stereo unspecified)	.	5	4.6	4	3116	-11	5
CC1(C)CC(=O)c2sc(NC(=O)C3CC3)nc2C1	-3	8	-0.5	6	5400	-26	-1
O=C(OCC(=O)N1CCCCC1)c1ccc2c(c1)C(=O)N(Cc1ccco1)C2=O	.	-4	5.0	3	2742	-10	10
COC(=O)[C@@]1(C)[C@H]2C(=O)N(C)C(=O)[C@H]2[C@H]2CN=C(SCC(=O)c3ccccc3)N21	.	1	4.8	-6	2970	-57	4
Cn1c(N)c(C(=O)COC(=O)c2ccccn2)c(=O)n(C)c1=O	-3	2	7.1	1	4685	-8	3
CC(C)Cc1ccc(C(=O)Nc2ccc(Cc3ccncc3)cc2)o1	4	4	0.9	-2	3659	-6	1
CC(C)C(=O)c1cn(CC(=O)O)c2ccccc12	-1	5	7.8	9	4144	-21	2
O=C(CN1CCN(Cc2cccc(Cl)c2)C1=O)NCc1cccs1	8	-7	3.4	3	4606	.	11

# Bioassay records from PubChem.
